From PubChem BioAssay
MT1-MMP act inh = blocks activation of human MT1-MMP; P50281; HT1080 RFP-PRO-GFP cells, GFP/RFP ratio fluorescence, overnight; percent of plate control window, DMSO zero; GFP/RFP ratio change, % at 20 µM; 360,000 compounds, 0.061% hits; AID 651647;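 active means GFP/RFP ratio change of at least 30% with cell ATP level not reduced by more than half and red fluorescence within 50% of control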; further: strong numbers were not always called active
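Test system: HT1080 cells expressing an RFP-PRO-GFP fluorescent reporter construct / Compound dosing: single-point 20 µM compound, 1% DMSO / Schedule: cells overnight before dosing, compound overnight, 37 °C, 5% CO2 / Evaluation: GFP/RFP fluorescence ratio / Control set: DMSO and RFP-L50D-GFP cell wells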
Yeast UUG start = alters start codon recognition fidelity in yeast; S. cerevisiae UUG-firefly luciferase reporter, luminescence/redox ratio; activity score, % at 18.7 µM; 350,000 compounds, 0.13% hits;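 active means replicate mean at a twofold rise or more, about +100% in these data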;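 further: firefly luciferase made from a UUG start codon reports start codon fidelity; reporter light over untreated wells divided by growth signal over untreated wells; some hits fall short of that in this replicate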
MT1-MMP act inh RFP = recorded beside MT1-MMP act inh, whose call it bears; RFP signal change, %; measured here: RFP expression control read;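 0 = vehicle wells; hits needed this value within 50% of zero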
* hit, by the source's call. A portion of the library; the hit share may differ from the screen's.

Each structure is followed by: MT1-MMP act inh RFP, MT1-MMP act inh, Yeast UUG start
C=C1/C=C(\C)C(C)(O)CC(O)CC(=O)C(O)C(O)C(C)CC(C)OC(=O)/C(C)=C/CC/C=C/C(OC)C(O)CC(C)C1 (stereo not given)
  -3, 1, 8
CC(C)Oc1cc(F)ccc1-c1cc(C(=O)Nc2ccc(C(C)C)cc2)[nH]n1
  -9, -13, -15
C[C@@H]1CN([C@H](C)CO)C(=O)c2c(c3ccccc3n2C)-c2ccccc2CO[C@H]1CN(C)C(=O)NC1CCCCC1
  0, -1, 18
CCOc1ccc(NC(=O)COC(=O)CCN2C(=O)C3CC=CCC3C2=O)cc1OCC (stereo not given)
  3, -2, 1
Cc1ccc([C@H]2N[C@]3(CCCN(Cc4ccc(Br)cc4)C3=O)[C@H]3C(=O)N(C)C(=O)[C@@H]23)cc1
  -1, 0, -9
COc1ccc(N)c(C)c1
  0, 6, -18
COc1cc(/C=C/C(=O)OCC(=O)N2CCC(C)CC2)ccc1OCC#N
  -3, -3, 5
CCOC1=C2CN(S(=O)(=O)c3ccc(C)cc3)[C@H](c3ccccc3)C[C@@H]2N(S(=O)(=O)c2ccc(C)cc2)[C@H](c2ccccc2)C1
  -21, -2, -5
COc1cc(C)c(NC(=O)COc2cccc3c2OC(C)(C)C3)cc1OC
  -17, -4, -8
COc1ccc([C@H]2C[C@@H](O)[C@H](n3cc(COC(=O)c4ccccc4)nn3)CN2CC2CCCCC2)cc1
  -6, -2, -16
COc1ccc(-c2ccc3[nH]c4c(c3c2)CCN2C[C@@H]([C@H](C)OC(=O)Nc3cc(Cl)cc(Cl)c3)[C@@H](N(C)C(=O)Nc3cc(Cl)cc(Cl)c3)C[C@@H]42)cc1
  -3, -4, -21
Cc1ccc(N(C)S(=O)(=O)c2cccc(C(=O)NCC(c3ccco3)N3CCCC3)c2)cc1 (stereo not given)
  -4, 2, -15
Cc1cccc(C)c1NC(=O)CN(C)C(=O)C1CCCCC1
  1, 2, -14
O=C(NCCOc1ccccc1)N1[C@H]2CC[C@@H]1C=C(c1ccc(F)cc1OCc1ccccc1)C2
  -18, -16, -4
Cc1ccc(NS(=O)(=O)c2ccccc2F)cc1S(=O)(=O)N1CCCCC1
  -12, -1, 0

Compounds from the list above that have a halogen, in the order listed:
Each structure is followed by: MT1-MMP act inh RFP, MT1-MMP act inh, Yeast UUG start
CC(C)Oc1cc(F)ccc1-c1cc(C(=O)Nc2ccc(C(C)C)cc2)[nH]n1
  -9, -13, -15
Cc1ccc([C@H]2N[C@]3(CCCN(Cc4ccc(Br)cc4)C3=O)[C@H]3C(=O)N(C)C(=O)[C@@H]23)cc1
  -1, 0, -9
COc1ccc(-c2ccc3[nH]c4c(c3c2)CCN2C[C@@H]([C@H](C)OC(=O)Nc3cc(Cl)cc(Cl)c3)[C@@H](N(C)C(=O)Nc3cc(Cl)cc(Cl)c3)C[C@@H]42)cc1
  -3, -4, -21
O=C(NCCOc1ccccc1)N1[C@H]2CC[C@@H]1C=C(c1ccc(F)cc1OCc1ccccc1)C2
  -18, -16, -4
Cc1ccc(NS(=O)(=O)c2ccccc2F)cc1S(=O)(=O)N1CCCCC1
  -12, -1, 0

An excerpt from above with just MT1-MMP act inh RFP and MT1-MMP act inh:
| SMILES | MT1-MMP act inh RFP | MT1-MMP act inh |
| --- | --- | --- |
| C=C1/C=C(\C)C(C)(O)CC(O)CC(=O)C(O)C(O)C(C)CC(C)OC(=O)/C(C)=C/CC/C=C/C(OC)C(O)CC(C)C1 (stereo not given) | -3 | 1 |
| CC(C)Oc1cc(F)ccc1-c1cc(C(=O)Nc2ccc(C(C)C)cc2)[nH]n1 | -9 | -13 |

The listing picks up with the 4 entries that preceded the break.
Each structure is followed by: MT1-MMP act inh RFP, MT1-MMP act inh, Yeast UUG start
Cc1ccc(N(C)S(=O)(=O)c2cccc(C(=O)NCC(c3ccco3)N3CCCC3)c2)cc1 (stereo not given)
  -4, 2, -15
Cc1cccc(C)c1NC(=O)CN(C)C(=O)C1CCCCC1
  1, 2, -14
O=C(NCCOc1ccccc1)N1[C@H]2CC[C@@H]1C=C(c1ccc(F)cc1OCc1ccccc1)C2
  -18, -16, -4
Cc1ccc(NS(=O)(=O)c2ccccc2F)cc1S(=O)(=O)N1CCCCC1
  -12, -1, 0
COCCN(C(=O)COC(=O)c1c(C)nn(-c2ccccc2)c1C)c1c(N)n(Cc2ccccc2)c(=O)[nH]c1=O
  6, -3, -5
S=C1NC[C@H](Cc2ccccc2)N1CC1CCN(CCCC2CCCC2)CC1
  -2, 0, -16
CCN(CC)C(=O)C1=C(C)N(CCCN2CCCC2=O)C(=O)C(CC(=O)NCC2CCCCC2)C1 (stereo not given)
  4, -2, -14
CCc1noc(C)c1C(=O)N1CCN(S(=O)(=O)c2cccc(C(F)(F)F)c2)CC1
  1, 0, -7
Cc1ccc([C@H]2N[C@]3(CCCN(Cc4ccc(Cl)cc4)C3=O)[C@H]3C(=O)N(Cc4ccccc4)C(=O)[C@@H]23)cc1
  -5, 1, 3
CCOC(=O)C1=CCC(C(C)(C)C)N(S(=O)(=O)c2ccc(C)cc2)C1 (stereo not given)
  -3, 5, 4
COc1ccccc1-c1nn(Cc2ccccc2)cc1C(=O)NCC(c1ccco1)N1CCCC1 (stereo not given)
  4, 3, 0
Cc1ccc(S(=O)(=O)NCCC(=O)NCC(c2cccs2)N(C)C)cc1 (stereo not given)
  1, -2, -7
O=C1NC(=O)C(=Cc2ccco2)S1
  1, 5, -17
CC(NC(=O)c1ccccc1Cl)C(=O)N1CCN(Cc2ccc3c(c2)OCO3)CC1 (stereo not given)
  4, 1, -15
CC(=O)N1CCN(C(=O)c2cccc(S(=O)(=O)N3CCN(c4ccccc4)CC3)c2)CC1
  0, 1, -6
NC(=O)c1ccc(NC(=O)COC(=O)c2ccc(Br)o2)cc1
  3, -6, -21
COc1cccc(NC(=O)CN(C)C(=O)c2ccc(Cl)c(S(=O)(=O)N3CCCCCC3)c2)c1
  -6, 10, 22
Cc1ccc([C@@H]2CC(=O)[C@@H]3CN(S(=O)(=O)c4ccc(C)cc4)[C@H](c4ccccc4)C[C@@H]3N2S(=O)(=O)c2ccc(C)cc2)cc1
  -5, -2, -18
CN1CCN(C(=O)c2cccc3c(-c4ccc(F)c(F)c4)coc23)CC1
  -1, 4, 8
Cc1ccc(S(=O)(=O)N(C)CC(=O)OCC(=O)NCCN2C(=O)CSC2=O)cc1
  -5, 2, -14
Cc1cccc(-n2ncc3c(=O)[nH]c(SCC(=O)NCCC4=CCCCC4)nc32)c1
  -1, -5, 0
CCOC(=O)C1(C)CCCCN1C(=O)c1cccs1 (stereo not given)
  3, 0, -3
CCCCn1c(N)c(N(C(=O)CSc2nnc(C)n2-c2ccccc2)C2CCCC2)c(=O)[nH]c1=O
  2, -1, -36
CCN(CC)C(=O)[C@H]1C[C@H](CC(=O)NCCCN(C)C)C(=O)N2CCc3c([nH]c4cc(-c5ccco5)ccc34)[C@]12C
  -2, 0, -7
CC1(C(=O)NS(=O)(=O)c2ccccc2Cl)CCN1C(=O)C1CC1 (stereo not given)
  5, 1, -23
CC(C)c1ccc(NC(=O)c2ccc(-c3ccnn3C)c3ccoc23)cc1
  -28, -4, -9
O=C(C[C@H]1C[C@H](C(=O)N2CCOCC2)[C@@]2(CCC3CCCC3)c3[nH]c4cc(-c5ccco5)ccc4c3CCN2C1=O)NCCC1=CCCCC1
  -10, -10, -21
O=C(COC(=O)CCS(=O)(=O)c1ccccc1)Nc1ccccc1
  1, -4, 0
COCCN(Cc1ccccc1)C(=O)C1CCN(S(=O)(=O)c2ccc3c(c2)OCCO3)CC1
  2, 2, -8
CC(=O)Nc1cccc(-c2cc(NC(C)=O)c3ncc(-c4cccc(C(C)=O)c4)n3c2)c1
  1, -7, -12
CCOc1cc(C(=O)Nc2cc(C(=O)OC)ccc2C)ccc1OCC(=O)N1CCOCC1
  -1, -2, 7
COc1ccc2c(-c3ccc(OCCN4CCOCC4)cc3)c(-c3ccccc3OC)sc2c1
  -3, 0, -20
N#Cc1cccc(N2[C@@H](Cc3cc4ccccc4n3Cc3ccccc3)COC[C@H]2Cc2ccc3ccccc3c2)c1
  2, -1, -4
CCCCn1c(SCC(=O)NCc2ccc3c(c2)OCO3)nnc1C(CC)N(C)C (stereo not given)
  0, 1, 13
CC[C@]12c3[nH]c4cc(CCC(=O)N(C)C)ccc4c3CCN1C(=O)[C@@H](CC(=O)NC/C=C(\C)CCC=C(C)C)C[C@@H]2C(=O)N1CCN(C(=O)c2ccco2)CC1
  1, 14, 3
O=C(OCc1nc(-c2ccccc2Cl)no1)c1ccco1
  -3, -1, 10
COCCN(C(=O)CC1OC(=O)c2ccccc21)c1c(N)n(Cc2ccccc2)c(=O)[nH]c1=O (stereo not given)
  1, 2, -3
COCCN(CC(=O)Nc1cccc(C)c1C)C(=O)c1cc(-c2ccncc2)nc2ccccc12
  2, 0, -11
Cc1ccsc1C(=O)N(C)C1CCS(=O)(=O)C1 (stereo not given)
  2, 0, -6
O=C1C(=NO)C(c2ccccc2)Oc2ccccc21 (stereo not given)
  -1, -1, -4
CCCn1c(N)c(C(=O)CSc2nncs2)c(=O)[nH]c1=O
  -1, -3, -27
Cc1ccc(C)c(OCCC(=O)OCC(=O)N2c3ccccc3NC(=O)C2(C)C)c1
  4, -2, 5
CCOC(=O)C1Oc2ccccc2C(C(=O)OC)=C1C(=O)OC (stereo not given)
  2, -2, 1
CCCn1nc(C(=O)OCc2nc(N)nc(Nc3ccccc3C)n2)c2ccccc2c1=O
  -2, 4, 4
C=C1C(=O)OC2CC1C(OC(C)=O)CC(C)=CCCC(C)=CCCC2(C)O (stereo not given)
  -22, -9, -9
O=[N+]([O-])c1cccnc1Oc1cc(Cl)c(Cl)cc1Cl
  -1, -2, -11
O=S(=O)(c1ccc(C(F)(F)F)cc1)N1CCN(CCOc2ccccc2)CC1
  0, -4, -7
O=C(CN(C1CCCCC1)S(=O)(=O)c1ccc(F)cc1)NCC1CCCO1 (stereo not given)
  -29, -19, -21
CCN(CC)S(=O)(=O)c1ccc(C(=O)NCC(=O)NCc2ccc3c(c2)OCO3)cc1
  -5, -8, 89
CCOc1ccc(NC(=O)CN(C)C(=O)Cc2ccsc2)cc1OCC
  3, 4, -1
O=C(COC(=O)C1CC2CCCC(C1)C2=O)Nc1ccc(Cl)cn1 (stereo not given)
  0, -6, -12
CCc1noc(C)c1C(=O)OC(C)C(=O)c1c(C)[nH]c2ccccc12 (stereo not given)
  0, 2, -9
Cc1cc(F)ccc1NC(=O)Cn1c(C)csc1=O
  2, 0, -10
COc1ccc2c(c1)[C@H]1[C@H](CO2)[C@H](c2ccccc2)[C@]2(C)C(=O)N(Cc3ccc(C)cc3)CC(=O)N12
  -6, -7, -15
Cc1ccc(S(=O)(=O)N2CCN(C(=O)CCc3c[nH]c4ccccc34)CC2)cc1
  -3, 2, -1
c1ccc(-c2nnc(Cn3c4ccccc4c4nc5ccccc5nc43)o2)cc1
  1, -4, -14
CCOC(=O)C1=C(COC(=O)c2ccc3ccccc3c2O)NC(=O)NC1C (stereo not given)
  0, -23, -12
Cc1ccc(S(=O)(=O)NNC(=O)C23CCC(CC2)C3)cc1
  -1, 4, -7
COc1cccc(C(CNC(=O)C2CCN(C(=O)Nc3ccccc3)CC2)N(C)C)c1 (stereo not given)
  5, 5, 3
CC(=O)Nc1ccc(NC(=O)CSc2nc(=O)n(Cc3cccnc3)c3c2CCC3)cc1
  3, -1, -14
CCCCCCN1C[C@@H](n2cc(COC(=O)c3ccccc3)nn2)[C@H](O)C[C@@H]1c1ccc(Cl)cc1
  0, -1, -10
O=C(O)CC(C(=O)O)C(=Cc1ccccc1)c1ccccc1 (stereo not given)
  8, 7, -7
Cc1ccccc1S(=O)(=O)N1[C@@H](c2cccc(Cl)c2)C(C(=O)OC(C)(C)C)=CC[C@H]1c1ccc(Cl)cc1
  -28, -10, -12
O=C(Cn1c(NCCO)nc2ccccc21)Nc1ccc2c(c1)OCCCO2
  4, 4, -14

The list goes on.
Each structure is followed by: MT1-MMP act inh RFP, MT1-MMP act inh, Yeast UUG start
COc1ccc(CN2CCC[C@]3(N[C@H](c4ccc(C)cc4)[C@@H]4C(=O)N(C)C(=O)[C@@H]43)C2=O)cc1
  1, -1, -12
Cn1cc(C(=O)C(=O)N2CCCCC2)c2ccccc21
  2, -5, -18
COc1ccccc1CNCCS(=O)(=O)NCc1ccccc1
  0, 2, 0
CC(=O)Nc1ccc(CC(=O)Nc2ccc3c(c2)OC2(CCCC2)O3)cc1
  -1, 1, -5
COc1ccc(CCNC(=O)c2ccc(NC(=O)CC3SC(N4CCCC4)=NC3=O)cc2)cc1OC (stereo not given)
  5, 5, -6
CCc1cccc2c(C(=O)CSc3nnc(C4CC4)o3)c[nH]c12
  -4, 6, -5
CC(O)(c1ccccc1)C(C(c1ccccc1)N1CCOCC1)N1CCOCC1 (stereo not given)
  -2, -4, -8
COc1ccc(C(CNC(=O)c2ccc(S(=O)(=O)Nc3cccc(C)c3C)cc2)N2CCOCC2)cc1 (stereo not given)
  -5, 0, 10
O=C(COC(=O)c1nc(Cl)ccc1Cl)Nc1cccc(S(=O)(=O)N2CCOCC2)c1
  3, 0, -11
Cc1cccc(NC(=O)CN2CCN(C(=O)c3ccc(OCc4cn5ccccc5n4)cc3)CC2)c1C
  -10, 3, -11
